Assay outcomes (PubChem BioAssay)
NS1 function inh = inhibitors of influenza NS1 protein function. Potency, µM (top dose mostly 46.1 µM), for the others: top-dose activity, positive = more growth. S. cerevisiae slowed by influenza A NS1, growth recovery by OD600. AID 2326. 270,000 tested, 0.4% active; active means well fitted rising curve with a large enough effect; inconclusive means small, poorly fitted or top-dose-only effect; inactive means no such curve, though single readings can be large or run the other way; further: nearly all actives have a fitted effect of over 50% in size
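OD600 was taken as the measure of yeast growth restored by compound in an NS1-expressing S. cerevisiae strain. Cells had been washed out of glucose medium and diluted 1:100 into galactose -URA medium, pH 6.0.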
Lassa entry inh = inhibitors of Lassa virus binding or cell entry. 300,000 tested, 1.2% active. Potency, µM (highest dose often 37.9 µM), without a hit: at the top dose activity change, negative = inhibition, actives largely listed as inhibitors. Lassa virus pseudotype entry inhibition, cell reporter; control for the full effect not named in the record. AID 540256; active means well fitted inhibition curve with a large enough effect; inconclusive means small, poorly fitted or top-dose-only effect, or effect the other way; inactive means flat fitted curve, though single readings scatter; tested in HEK293 cells; further: on the % scale 0 is the no-effect control and ±100 the full control effect; nearly all actives have a fitted effect of over 50% in size; luciferase read-out
SARS PLpro yeast = SARS-CoV PLP inhibition in yeast. 330,000 tested, 0.19% active. Potency, µM (highest dose often 32.9 µM), for the others: at the top dose activity, positive = growth rescue. S. cerevisiae expressing SARS-CoV PLpro, growth rescue; control for the full effect not named in the record; active means well fitted rising curve with a large enough effect; inconclusive means small, poorly fitted or top-dose-only effect; inactive means no such curve, though single readings can be large or run the other way; further: 0% is about no effect; nearly all actives have a fitted effect of over 55% in size; growth read by luminescence after 48 h
MARV entry inh = Marburg virus entry inhibition | AID 540276 | Marburg virus pseudotyped entry inhibition, cell reporter; control for the full effect not named in the record; about a third of the inactives were read at about 46 µM | 300,000 tested, 1.8% active | Potency, µM (doses to about 37.8 µM), for the others: top-dose activity change, negative = inhibition, usual class: inhibitors; active = well fitted inhibition curve with a large enough effect; inconclusive = small, poorly fitted or top-dose-only effect, or effect the other way; inactive = flat fitted curve, though single readings scatter; tested in HEK293 cells; about a fifth of its hits are not listed in these tables; further: on the % scale 0 is the no-effect control and ±100 the full control effect; luciferase read-out
2A StopGo = FMDV 2A StopGo reporter, luciferase signal. human cells with a luciferase reporter of 2A StopGo recoding; control for the full effect not named in the record. Potency, µM (doses to about 57.9 µM), without a hit: top-dose signal change, negative = less light. 410,000 tested, 1.2% active; active = well fitted falling curve with a large enough effect; inconclusive = small, poorly fitted or top-dose-only effect; inactive = no such curve, though single readings can be large or run the other way; tested in HEK293T cells; further: on the % scale 0 is the no-effect control and ±100 the full control effect; nearly all actives have a fitted effect of over 45% in size; luciferase light after 4 h
Cruzain inh noDet = cruzain (T. cruzi) inhibition without detergent; purified cruzain, Z-FR-AMC fluorescence, no detergent; Potency, µM, for inactives: max response, negative = inhibition, usual class: inhibitors; 200,000 tested, 2.3% active;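 further: plate controls were enzyme without inhibitor for no effect and buffer without enzyme for full effect; nearly all actives have a fitted effect of over 40% in size; top concentration of the series not given in the record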
Target sequence (P25779 123-467 limits assumed): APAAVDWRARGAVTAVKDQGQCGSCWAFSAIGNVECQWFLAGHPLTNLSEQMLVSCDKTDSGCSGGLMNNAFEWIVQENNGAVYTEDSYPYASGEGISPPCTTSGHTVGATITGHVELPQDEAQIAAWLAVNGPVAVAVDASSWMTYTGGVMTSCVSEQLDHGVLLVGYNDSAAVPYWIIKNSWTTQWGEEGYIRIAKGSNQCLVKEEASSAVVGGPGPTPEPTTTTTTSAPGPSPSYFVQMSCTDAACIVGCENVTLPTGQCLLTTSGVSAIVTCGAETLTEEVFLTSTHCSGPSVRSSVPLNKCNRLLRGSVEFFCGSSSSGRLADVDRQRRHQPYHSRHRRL
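Purified cruzain at 1.5 nM, pre-incubated 15 min with compound at room temperature in 100 mM sodium acetate pH 5.5, 5 mM DTT, 0.00005% Triton X-100. Reaction started with 2 uM Z-FR-AMC; AMC fluorescence increase over 60 s gives rate.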
Cruzain Triton = blocks cruzain activity in presence of Triton detergent; 200,000 tested, 0.43% active; AID 1478; Potency, µM, inactives show max response, negative = inhibition, usual class: inhibitors; purified cruzain, Z-FR-AMC fluorescence, 0.01% Triton;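 further: plate controls were neutral wells for no effect and buffer without enzyme for full effect; nearly all actives have a fitted effect of over 40% in size; top concentration of the series not given in the record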
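Detergent-containing run (0.01% Triton X-100) in acetate buffer pH 5.5 with 5 mM DTT: enzyme at 1.5 nM final, 15 min compound preincubation at room temperature, then 2 uM Z-FR-AMC substrate. Activity taken as 60 s fluorescence increase at 360/450 nm.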
RE007 growth inh = less growth of the S. pombe RE007 Vpr strain. S. pombe RE007 Vpr strain, BacTiter-Glo ATP luminescence, 24 h; control for the full effect not named in the record. AID 651644. 360,000 tested, 0.21% active. Potency, µM (doses to about 92.2 µM), inactives show at the highest dose activity change, negative = less growth; active = well fitted falling curve with a large enough effect; inconclusive = small, poorly fitted or top-dose-only effect; inactive = no such curve, though single readings can be large or run the other way;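 further: on the % scale 0 is the no-effect control and ±100 the full control effect; nearly all actives have a fitted effect of over 50% in size; the assay follows cell death caused by Vpr and the record does not say whether a fall means rescue or toxicity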
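Fission yeast RE007 carrying one integrated HIV-1 vpr copy, seeded at OD 0.01 in PMG+AL medium with 23 nL pinned compound. Grown 24 h at 30 degrees; viability read by BacTiter-Glo luminescence after 5 min.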
Starred values were filed as active, the others as inactive; ? = inconclusive; . = not tested or not shown; & = joins results of further samples; [ ] = another dose, or the depositor's remark. Unless noted, the call rests on the fitted dose curve; in most records, active means well fitted curve in the direction sought with a large enough effect; inconclusive means small, poorly fitted or top-dose-only effect, or another doubt; inactive means no such curve, though single readings can be large; an effect the other way counts as inactive or inconclusive. Potency means the concentration at half of the fitted maximal effect.

The line under a structure holds: Lassa entry inh	NS1 function inh	Cruzain inh noDet	RE007 growth inh	MARV entry inh	SARS PLpro yeast	2A StopGo	Cruzain Triton
CCC(C)NC(=O)c1sc2nc(C)c(C(=O)Nc3ccc(C)cc3C)c(-c3ccc(Cl)cc3)c2c1N (stereo not given)
  -20%[46.1 µM]	.	?	.	?	.	-7%	-3.3%
O=C(CNC(=O)c1ccccc1Br)N/N=C/c1cccnc1
  27%[46.1 µM]	3%	.	1%	12%[46.1 µM]	4%	-10%	.
COc1ccc(Cl)cc1NC(=S)NCCc1ccc(F)cc1
  .	-45%	.	23%	.	12%	-15%	.
Cc1ccccc1OCc1nc(-c2ccccc2)no1
  6%	-19%	-5%	-10%	-27%[46.1 µM]	-9%	44%[activator]	-8.6%
CCn1c(O)c(N=NC(=O)CNC(=O)c2ccccc2F)c2ccccc21
  .	-8%	.	0%	.	-1%	-12%	.
COCC(=O)Nc1nnc(SCC(=O)NCc2cccs2)s1
  -8%	-16%	14%	12%	-6%	8%	16%	-2.6%
CCOc1ccc(S(=O)(=O)N(C)c2ccc(OCC(=O)Nc3nc(-c4cc(OC)ccc4OC)cs3)cc2)cc1
  -5%	19%	7.9µM*	8%	4%	20%	-12%	-2.4%
O=C(CN1CCOCC1)N/N=C/c1ccccc1
  -4%	-1%	.	-6%	-1%	0%	0%	.
C=CCc1ccccc1OCC(O)CN1CCN(Cc2ccc3c(c2)OCO3)CC1 (stereo not given)
  2%	-15%&-2%	5%	-29%&-8%	?	-11%&0%	?	2.5%
CCNC(=S)N1CCN(C(c2ccccc2)c2ccccc2)CC1
  -8%	-8%	4%	2%	-22%	-1%	.	-2.2%
CCCCc1ccc(NC(=S)NCc2ccccc2OC)cc1
  2%[46.1 µM]	-5%	.	-10%	5%[46.1 µM]	23%	-14%	.
COc1ccc(-c2cc(C(=O)NCCc3ccc(Cl)cc3)[nH]n2)cc1
  -4%[46.1 µM]	.	?	.	.	.	-12%	-0.6%
Cc1cc(C(=O)N/N=C/c2c(C)[nH]c3ccccc23)n[nH]1
  0%	3%	.	6%	-10%[46.1 µM]	0%	1%	.
O=[N+]([O-])c1ccc(Cc2ccc([N+](=O)[O-])cc2)cc1
  2%[46.1 µM]	.	.	-20%	?	.	-19%	.
CCOc1ccc(N=Nc2c(N)[nH][nH]c2=O)cc1
  ?	19%	-8%	-6%	-26%	0%	18%	-10%
CCOC(=O)CSc1n[nH]c(NC(=O)NC(C)C)n1
  .	5%	.	9%	.	0%	-2%	.
COc1cccc(NC(=O)CCCCCN2C(=O)[C@@H]3Cc4ccccc4CN3C2=O)c1
  .	-2%	.	7%	.	-3%	?	.
CCC(=O)Nc1cccc(C2=NOC3(C2)C[C@@H](C(N)=O)N(C(=O)C(c2ccccc2)c2ccccc2)C3)c1 (stereo not given in full)
  .	-29%	.	5%	.	0%	-11%	.
CC(C)(C)Nc1scc(-c2ccccc2)[n+]1-c1ccccc1
  -5%[46.1 µM]	.	.	6%	-9%[46.1 µM]	0%	-8%	.
Cn1c(=O)oc2cc(S(=O)(=O)N3CCCC(C(=O)NCC4COc5ccccc5O4)C3)ccc21 (stereo not given)
  .	-18%	?	8%	1%	0%	-35%	0.9%
COc1ccc(S(=O)(=O)N2CCCOC2CNC(=O)C(=O)NCCCn2ccnc2)cc1 (stereo not given)
  -6%[46.1 µM]	.	.	11%	10%[46.1 µM]	1%	-25%	.
COc1ccc(NC(=O)c2cn(CCC#N)nc2-c2ccc([N+](=O)[O-])cc2)cc1
  5%	.	.	2%	4%[46.1 µM]	2%	-1%	.
O=C(NCCc1ccc(Cl)cc1)C1CCN(C(=O)c2sccc2-n2cccc2)CC1
  -23%	-5%	15%	-1%	?	7%	?	-1.8%
COc1cccc(-n2c(SCC(=O)N3CCc4ccccc43)nc3c([nH]c4ccccc43)c2=O)c1
  ?	.	?	.	.	.	0%	-0.2%
CCOC(=O)N1CCN(C(=O)C2CC(=O)N(c3ccc(C)cc3)C2)CC1 (stereo not given)
  -2%	.	.	-1%	6%[46.1 µM]	0%	-4%	.
CC(=O)Nc1nc(-c2cccs2)cs1
  -19%	-65%	-7%	6%	28%	1%	42%[activator]	-0.5%
C/C(=C(/NC(=O)c1ccccc1)C(=O)O)c1ccco1
  3%	29%	3%	7%	-29%	10%	-14%	-2.9%
O=C(Nc1ccccc1C(=O)N1CCN(CCO)CC1)c1cccc([N+](=O)[O-])c1
  -14%	1%	.	-10%	-12%	1%	-14%	.
CN(C)CCCNC(=O)c1cc(C(=O)Cc2ccccc2)c[nH]1
  1%	6%	.	-7%	-3%	-1%	-14%	.
N#C/C(=C\c1cn(Cc2ccc(C#N)cc2)c2ccccc12)C(=O)NCc1cccs1
  11%	-2%	?	17%	14%	-13%	-20%	-2.9%

Remaining list, next part.
The line under a structure holds: Lassa entry inh	NS1 function inh	Cruzain inh noDet	RE007 growth inh	MARV entry inh	SARS PLpro yeast	2A StopGo	Cruzain Triton
O=c1c2ccccc2nc(SCc2ccccc2Cl)n1Cc1ccccc1
  11%	-9%	?	3%	-2%	2%	-13%	3.9%
O=C(Cn1nc(Cc2cccnc2)c2ccccc2c1=O)Nc1ccc2c(c1)OCO2
  .	-10%	-1%	-1%	9%	11%	-26%	-0.4%
COc1ccc(S(=O)(=O)Nc2ccccc2-c2nc3ccccc3[nH]c2=O)cc1
  -8%	5%	.	3%	?	9%	8%	.
CC1CN(C(=O)CCC(=O)N2CCN(c3cccc(C(F)(F)F)c3)CC2)c2ccccc2O1 (stereo not given)
  .	3%	.	7%	.	-6%	?	.
COc1cc(/C=C(\NC(=O)c2ccccc2)C(=O)NC(C(=O)O)c2ccccc2)cc(OC)c1OC (stereo not given)
  .	13%	.	9%	.	4%	-19%	.
COc1ccc(Nc2nc(C(=O)N(CCO)Cc3ccccc3)cs2)cc1
  ?	3%	.	3%	?	1%	-2%	.
CCCc1ccc(OCC(=O)Nc2sc3c(c2C(=O)OC)CCCCC3)cc1
  25%[46.1 µM]	.	8%	.	.	.	-13%	-7.0%
COc1cccc(C2(O)CC(C(F)(F)F)=NN2C(=O)c2ccccn2)c1 (stereo not given)
  ?	0%	.	6%	?	1%	26%	.
CNC(=S)NNC(=O)Cc1ccc(O)cc1
  6%	-16%	10%	10%	2%	-5%	-13%	-1.0%
COc1cc2c(cc1OC)-c1c(OC)c(OC)cc3c1[C@H](C2)[N+](C)(C)CC3
  0%	9%	-13%	0%	24%	21%	?	-1.0%
O=C(CCN1C(=O)c2ccccc2C1=O)N1CCN(Cc2ccc(Cl)cc2Cl)CC1
  -12%	-14%	?	-5%	-12%	-5%	?	4.4%
COc1cc(OC)cc(-c2nc3n(n2)C(c2ccccc2F)C(C(=O)Nc2cccnc2)=C(C)N3)c1 (stereo not given)
  0%[46.1 µM]	.	?	.	?	.	-5%	-8.7%
COc1ccc(Cn2c(C(=O)O)c(CNCCc3cccs3)c3ccc(C)cc32)cc1
  -23%[46.1 µM]	.	10%	.	.	.	-4%	-5.4%
O=C(CN1C(=O)COc2ccccc21)NCCN1CCc2ccccc2C1
  7%	-2%	-2%	8%	2%&13%	-1%	.	-0.9%
CC1=C2C(=O)OC(c3ccoc3)C2(C)CCC1 (stereo not given)
  -3%	-7%	-10%	-10%	-9%[46.1 µM]	-3%	-9%	1.6%
Cc1cc(=O)[nH]c2nnc(SCc3ccc(C(F)(F)F)cc3)n12
  ?	.	-1%	.	.	.	3%	-1.3%
COC(=O)C1(C)NC(c2ccc(O)cc2)C2C(=O)N(c3ccc(F)cc3)C(=O)C21 (stereo not given)
  .	29%	.	5%	.	3%	-6%	.
C/C(N)=C(/C#N)C(=O)CN1C(=O)NC(Cc2c[nH]c3ccccc23)C1=O (stereo not given)
  .	5%	.	-2%	.	-3%	2%	.
O=C(C1CCN(CC2CC=CCC2)CC1)N(CCc1ccccc1)Cc1ccccc1 (stereo not given)
  ?	2%	10%	-11%	?	5%	-4%	2.4%
O=C(NCCCn1ccnc1)c1cn(-c2ccccc2)nc1-c1ccc(F)cc1
  1%	2%	1%	-2%	6%	-5%	.	1.6%
Cc1cccc(NC(=O)C2CCC(CNS(=O)(=O)c3csc(C(N)=O)c3)CC2)c1C (stereo not given)
  -4%[46.1 µM]	.	-18%	.	.	.	1%	2.8%
CCc1nc2cc(CC(=O)O)ccc2o1
  4%	20%	2%	10%	-6%	2%	17%	3.6%
CC12CN(C(=O)c3ccco3)CC(c3ccccc3)(CN(C(=O)c3ccco3)C1)C2=O
  26%	4%	8%	19%	17%	4%	?	0.9%
CC(C)c1nc(CNC(=O)CC2C(=O)NCCN2Cc2ccc(F)cc2Cl)cs1 (stereo not given)
  -4%[46.1 µM]	17%	.	8%	-6%[46.1 µM]	-12%	-21%	.
CC1(c2ccccc2)NC(=O)N(CC(=O)N2CCOCC2)C1=O (stereo not given)
  5%	?	3%	-5%	-5%	1%	2%	2.0%
CN1/C(=C\C=C2/C(=O)Oc3ccccc3C2=O)C(C)(C)c2ccccc21
  ?	0%	?	0%	-2%	8%	4%	-5.4%
CNCCc1ccc(OC)c(OC)c1
  .	7%	.	1%	.	4%	-12%	.
O=C(CSc1nc(=O)n(CCN2CCOCC2)c2c1CCCC2)Nc1cccc([N+](=O)[O-])c1
  -8%	.	.	-17%	0%[46.1 µM]	1%	-11%	.
C=CCN1C=C2C(=O)C(C)(OC(=O)C3CCCC3)C(=O)C(c3ccccc3)=C2C=C1CCCC(=O)OC (stereo not given)
  .	0%	.	-12%	.	-5%	-8%	.
CC(C)(C)OC(=O)N1CCC(c2c(C(=O)NCc3ccco3)cnn2-c2ccc(F)cc2F)CC1
  ?	.	22%	.	.	.	1%	-6.0%
Nc1nonc1-n1nnc(C(=O)N/N=C/c2ccccc2Cl)c1-c1ccc2c(c1)OCO2
  9%[46.1 µM]	8%	.	1%	-20%[46.1 µM]	1%	-4%	.
